Vif TR-FRET: inhibitors of Vif binding to APOBEC3G peptide, primary screen, biochemical, TR-FRET, GST-Vif 1-94, biotin-A3G peptide, dose response retest (AID 1117319). TR-FRET GST-Vif / biotin-A3G peptide binding; higher % means a stronger effect; test concentration not given here; strong numbers were not always called active. 260,000 compounds, 0.57% hits. one-dose inhibition, %; IC50 in µM for titrated hits;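 active means above the screen mean plus three standard deviations and confirmed in dose response; inconclusive means results disagree or hit not tested in dose response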;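 further: Vif residues 1-94 fused to GST binding biotinylated APOBEC3G peptide 110-148; 0% = full assay without inhibitor and 100% = GST in place of GST-Vif; retest series ran down from 100 µM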
T cruzi inh: T. cruzi replication inhibition; T. cruzi beta-gal in NIH3T3, luminescence, 90 h; inhibition, % (no concentration beside the values); 300,000 compounds, 1.4% hits;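 active means mean inhibition across valid replicates above about 55%, limit read from the data; inconclusive means mean below that limit but half or more replicates reach it; inactive means mean below it, under half of replicates reach it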;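 further: signal also drops with host cell toxicity which is not excluded here; 0% = plate median of DMSO wells and 100% = zero luminescence signal; higher percent means less beta-gal luminescence so fewer parasites; stock transfer was 50 nL into about 50 µL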
Beta apoptosis: blocks beta cell apoptosis; INS-1E cytokine-induced death, ATP luminescence, 48 h; percent of positive-control rescue, neutral wells zero; protection from apoptosis, % (test concentration not listed); 300,000 compounds, 0.8% hits; AID 435005;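 active means all replicates at 75% or more, or half of them and the mean; inconclusive means half reach 75% but not the mean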;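 further: 0% = cytokine-treated negative control wells and 100% = positive control rescue; higher means more ATP so stronger rescue from cytokine killing; wells of about 40 µL received 100 nL stock; the first replicate is given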
LANA-H2B inh: blocks KSHV LANA binding to histone H2A/H2B | Q9QR71 | cell-free LANA-H2A/H2B peptide, fluorescence polarization | inhibition, % (concentration not given with the values) | 320,000 compounds, 0.6% hits | AID 2629; in the data active means inhibition mostly above about 10%, no sharp cut-off; inactive means mostly below about 6.7%;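 further: stock transfer was 7.5 nL into about 10 µL; 0% = median of vehicle wells and 100% = median of positive control wells; one replicate is shown; the record names a cut of 25% in any replicate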
A1 inh: inhibitors of the anti-apoptotic protein A1, read as caspase activation; MEF A1-2A-BIM cells, Caspase-Glo 3/7 luminescence, 3 h; percent of clofoctol response, vehicle zero; caspase activation, % (concentration not given with the values); 330,000 compounds, 0.066% hits; AID 2462;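 active means over half of replicate activation scores above 10%, or exactly half above 10 with the replicate mean above 10; inconclusive means replicate mean below 10 yet half the replicates above 10; inactive means over half of replicates below 10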;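 further: wells of about 30 µL received 50 nL stock; many hits fall short of the cut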
RanGTP-Imp inh: disruptors of Ran-importin-beta complex formation – biochemical, FRET, CFP-Ran, YFP-importin-beta, homogeneous, primary screen; inhibition, % (no concentration beside the values); AID 2216; 300,000 compounds, 1.1% hits; cell-free CFP-Ran/YFP-importin-beta FRET ratio;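 active means most replicates above 15%; inconclusive means exactly half above 15%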;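 further: 0% = DMSO wells and 100% = Ran loaded with GDP instead of GTP; wells of about 40 µL received 100 nL stock; the first replicate is given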
MLL AF4-AF9 inh: inhibitors of human MLL-AF4/AF9 interaction; 350,000 compounds, 0.47% hits; inhibition, % at 10 µM; P42568; AlphaScreen, biotin-AF4 peptide binding to FLAG-AF9;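 active means every replicate reaching a set inhibition limit, whatever the replicate mean, cut at about 25% in these data; inconclusive means mean inhibition reaches that limit but some replicates miss it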;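 further: 0% = plate neutral control median and 100% = total signal loss; the record names both 10 and 1 µM as test concentration; the first replicate is given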
Target sequence (P42568 whole entry, looked up): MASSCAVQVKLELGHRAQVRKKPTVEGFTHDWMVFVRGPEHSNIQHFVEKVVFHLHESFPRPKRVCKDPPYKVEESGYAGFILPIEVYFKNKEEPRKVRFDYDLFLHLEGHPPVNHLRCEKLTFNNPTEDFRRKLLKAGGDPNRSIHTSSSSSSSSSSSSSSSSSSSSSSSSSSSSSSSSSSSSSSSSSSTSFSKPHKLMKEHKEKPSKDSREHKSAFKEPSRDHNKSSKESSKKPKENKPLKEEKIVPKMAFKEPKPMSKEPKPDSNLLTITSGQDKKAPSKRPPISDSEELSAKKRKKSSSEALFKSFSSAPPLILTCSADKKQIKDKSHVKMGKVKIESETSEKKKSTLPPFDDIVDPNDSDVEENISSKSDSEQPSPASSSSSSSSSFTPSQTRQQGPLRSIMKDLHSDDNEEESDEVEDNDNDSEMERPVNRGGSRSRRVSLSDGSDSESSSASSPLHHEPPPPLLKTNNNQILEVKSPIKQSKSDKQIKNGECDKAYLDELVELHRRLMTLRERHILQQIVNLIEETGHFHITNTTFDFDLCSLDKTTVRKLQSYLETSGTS
Calb FLC: affects C. albicans growth with fluconazole; C. albicans CaCi-2 (fluconazole-resistant clinical isolate) + fluconazole, Alamar Blue growth, 48 h; growth inhibition, % (concentration not given with the values); 300,000 compounds, 0.57% hits; AID 1979;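 active means most replicates above 75%; inconclusive means exactly half above 75%; inactive means most below 75%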;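 further: all wells also contain fluconazole at 8 µg/ml as a sub-toxic cotreatment; 0% = median of DMSO wells and 100% = median of geldanamycin control wells; wells of about 8 µL received 7.5 nL stock; the first replicate is given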
* = called active by the depositor; ? = inconclusive; . = no result given.

SMILES	Vif TR-FRET	T cruzi inh	Beta apoptosis	LANA-H2B inh	A1 inh	RanGTP-Imp inh	MLL AF4-AF9 inh	Calb FLC
COC(=O)CC1=NN(c2ccccc2)C(=O)/C1=C\c1ccc(OC)cc1	2%	-9	-5	0.3	0.5	1.5	.	-3
Nc1ccccc1C(=O)NC12CC3CC(CC(C3)C1)C2	.	-16	-5	2.3	-0.2	6.9	-4.1	5
O=C(NC1CC(=O)N(c2cccc(F)c2)C1)C(=O)c1c[nH]c2ccccc12 (stereo not given)	-5%	1	.	0.1	0.4	-10	1.8	-6
CCN(CC(=O)Nc1ccc2c(c1)OCCO2)C(=O)/C=C/c1ccc(OC)c(OC)c1	6%	-1	-2	-4.7	0.3	.	2.9	-2
O=C(CSc1ncnc2ccccc12)Nc1ccc2c(c1)OCCO2	-61%	-14	-3	-1.4	0.2	-2.2	-1.6	-24
O=C(NC1CCN(Cc2ccccc2)CC1)c1ccc2c(c1)OCCCO2	.	40	-5	-2.2	0.0	-2.5	-13	-17
O=c1c2ccccc2nc(-c2ccco2)n1/N=C/c1ccccc1O	.	-13	17	0.4	-1.8	-1.9	.	-8
CCn1c(COc2ccc(Cl)cc2)nnc1SC1CCc2ccccc2C1=O (stereo not given)	22%	7	.	-0.9	1.3	-4.0	-0.7	-3
CC(C)CCn1c(CN2CC(C)OC(C)C2)nc2c1c(=O)n(C)c(=O)n2C (stereo not given)	.	11	1	-1.4	0.4	8.6	0.4	0
O=C(NNC(=O)C1CCN(S(=O)(=O)c2ccc(Cl)cc2)CC1)c1ccncc1	-8%	5	-4	2.9	0.1	-0.6	-1.1	-11
Cc1ccc(OCC(=O)Nc2cc(S(=O)(=O)N3CCOCC3)ccc2Cl)c([N+](=O)[O-])n1	17%	10	2	-0.2	0.9	-1.6	-11	-4
O=C1CCCc2[nH]c(-c3ccccc3)nc21	.	-2	2	-1.5	-5.3	3.6	-1.1	-19
CCOC(=O)c1ccccc1NC(=O)CSc1nc(N)cc(N)n1	2%	-14	1	-1.5	-0.3	1.1	.	-12
COc1cc(OC)c(S(=O)(=O)NC(C)C)cc1S(=O)(=O)NC(C)C	-1%	-2	-3	-5.9	0.2	-2.0	-5.9	-3
Cc1cccc(NC(=O)c2cc3ccccc3o2)c1	?	-29	-2	-4.8	-6.8	1.4	-6.3	-10
COc1ccc(-c2nnn(CC(=O)NCc3ccc4c(c3)OCO4)n2)cc1OC	.	-6	-10	-3.2	-0.1	0.9	-1.9	-1
CC(C)C(c1nnnn1C(C)(C)C)N1CCOCC1 (stereo not given)	14%	-8	-1	-2.2	0.4	1.2	.	-2
COc1ccc(CN2CCNC(=O)C2CC(=O)O)cc1OC (stereo not given)	2%	-1	-8	5.2	1.1	?	-1.9	-7
COc1ccc(-c2[nH]ncc2N=Nc2cc(C)cc(C)c2)cc1	-4%	40	18	-2.0	1.0	-2.7	5.8	15
O=C(O)c1cc(-c2cccs2)nc2ccc(F)cc12	-17%	-3	.	1.5	0.5	-0.1	-3.7	5
COc1cccc(NC(=O)C(=O)N/N=C/c2ccc3c(c2)OCO3)c1	3%	-15	-2	4.7	0.3	-0.3	-0.4	-13
Cc1nn(CC(=O)NCC(C)c2ccccc2)c(=O)c2cc(-c3ccccc3)nn12 (stereo not given)	.	-11	-3	2.5	-0.5	0.3	1.4	0
COc1ccc(NC(=S)NC(=O)/C=C/c2cccs2)cc1	1%	3	-1	4.5	0.1	-0.6	-1.5	-8
CC(NC(=O)/C(=C/c1ccc2c(c1)OCO2)NC(=O)c1cccc([N+](=O)[O-])c1)C(=O)O (stereo not given)	1%	-1	-4	1.3	0.8	1.2	1.4	?
O=C(NCc1ccccc1)c1c(Cl)nc(Cl)c(Cl)c1Cl	-6%	49	-10	3.4	-1.7	-2.2	-1.7	-13
Later entries
SMILES	Vif TR-FRET	T cruzi inh	Beta apoptosis	LANA-H2B inh	A1 inh	RanGTP-Imp inh	MLL AF4-AF9 inh	Calb FLC
O=C(NCCCN1CCOCC1)c1ccc(-n2nc(C(F)(F)F)cc2-c2cccs2)cc1	-4%	1	6	-1.5	0.1	-0.5	.	25
Cc1c([N+](=O)[O-])ccc(S(=O)(=O)N2CCC(C(N)=O)CC2)c1C	.	-7	-6	4.8	-0.1	-3.4	.	-3
O=c1c2ccccc2nc2n1CCCS2	4%	0	-7	-0.6	0.9	-5.4	-32	1
CCOC(=O)c1cc(-c2ccccc2)n(CC(=O)Nc2cccc(OC)c2)c1C	.	8	.	1.9	0.1	?	-1.9	-7
C/C(=N\NC(=O)c1nnn(-c2nonc2N)c1CN(C)c1ccccc1)c1ccc(O)cc1	.	-8	-7	-4.6	-0.1	-1.7	0.4	.
CCOc1ccc(NC(=O)Cc2ccccc2)cc1	.	-9	-2	16	-6.2	5.9	.	-18
CCn1cc(CNc2nc3nonc3nc2N2CCCCC2)cn1	-2%	1	-1	-3.2	-0.8	-1.2	-0.1	-26
O=C(CCCc1c[nH]c2ccccc12)NCc1ccccc1C(F)(F)F	-12%	-11	-2	-0.3	0.3	1.5	-1.9	6
CC(NC(=O)c1ccco1)C(c1cccs1)N1CCN(c2ccccc2F)CC1 (stereo not given)	.	-1	1	4.1	-0.2	2.7	-1.6	-1
CCCNC(=O)CN1CCN(c2cc3ccccc3c(Cl)n2)CC1	-8%	3	3	-1.2	0.0	7.3	1.9	-2
CCCCCN(C(=O)CCC(=O)OCCOc1cccc(Cl)c1)c1c(N)n(CCCC)c(=O)[nH]c1=O	-1%	-6	4	3.5	-0.6	-3.8	-0.6	4
O=C1NC(=Nc2cccnc2)S/C1=C\c1cccc(F)c1	1%	-19	-4	-0.6	0.0	11	-0.2	-2
CC1CCCC(NC(=S)NC(=O)c2ccco2)C1C (stereo not given)	.	.	-1	-1.2	-1.8	.	-1.8	.
CC(C)(C)C1CCc2c(sc3c2C(=O)NC(c2ccco2)N3)C1 (stereo not given)	?	-7	9	1.2	0.8	4.3	2.3	45
O=C(C(=O)N1CCOCC1)c1cn(CCOc2ccccc2)c2ccccc12	0%	-8	-6	-2.9	-0.1	2.5	2.0	-16
CCOC(=O)CSC1=C(C#N)C(c2sccc2C)C(C(C)=O)=C(C)N1 (stereo not given)	-1%	19	-6	-4.5	?	4.3	3.2	?
COCCN1C(=O)C(=O)/C(=C(/O)c2ccc(S(=O)(=O)N3CCCCC3)cc2)C1c1ccc(O)c(OC)c1 (stereo not given)	.	-20	-2	3.7	0.0	9.8	-1.1	-15
CC(Sc1ccccc1)C(=O)N1CCN(S(=O)(=O)c2cccc(Br)c2)CC1 (stereo not given)	.	13	2	1.2	0.2	-1.4	-1.2	10
CC(=O)NCC(=O)N(C)C(C(=O)Nc1ccc2c(c1)OCCO2)c1ccc(C)cc1 (stereo not given)	4%	-4	0	1.3	-0.6	0.0	-1.2	2
O=C(O)c1ccccc1C(=O)Nc1ccc(Br)c2cccnc12	?	4	-8	4.0	0.6	17*	0.5	9
Cc1cnc(NC(=O)c2sc(Nc3ccccc3)nc2N)o1	0%	8	-1	-2.6	-1.2	-1.4	2.9	-1
COc1ccc(S(=O)(=O)N2Cc3ccccc3CC2C(=O)O)cc1 (stereo not given)	14%	-7	6	-0.5	-0.1	1.8	.	-2
COc1ccc(C)cc1COC(=O)c1[nH]c(C)c(C(C)=O)c1C	.	26	17	3.9	-0.2	-1.4	9.3	-7
COCc1cc(=O)[nH]c2cc(NC(=O)c3cccc(OC)c3)c(C)cc12	-14%	8	6	4.3	0.3	-0.7	-2.6	0
Oc1ccc(C=Nc2ccc(N3CCOCC3)cc2)c(O)c1	20%	16	2	1.2	-0.3	-4.1	.	0
Additional entries.
SMILES	Vif TR-FRET	T cruzi inh	Beta apoptosis	LANA-H2B inh	A1 inh	RanGTP-Imp inh	MLL AF4-AF9 inh	Calb FLC
Cc1noc(C)c1CSCC(=O)OCC(=O)NC1CCCCC1	-8%	-20	-1	-1.1	0.3	?	.	-5
NC(=O)C1CCN(c2nc(-c3cccc(Cl)c3)cs2)CC1	.	.	-9	0.4	0.5	.	-0.4	.
CC1CCCC(NC(=O)COC(=O)c2cc3ccccc3oc2=O)C1C (stereo not given)	.	.	1	1.8	0.8	.	-0.2	.
CCOC(=O)Cn1nnnc1C(C(C)C)N(Cc1cc2c(C)cc(C)cc2[nH]c1=O)C1CCCC1 (stereo not given)	46µM*	23	5	2.0	0.5	-2.8	.	5
Cn1c2c(c(=O)n(C)c1=O)C(c1ccc(C(F)(F)F)cc1)CC(=O)N2 (stereo not given)	.	-15	6	4.3	0.4	3.9	.	-8
C=CCn1cc(C(=O)OC)c(=O)c2cc(S(=O)(=O)N3CCC(C)CC3)ccc21	8%	-2	-3	-4.2	0.6	1.1	.	-1
O=C(CSCc1c(Cl)cccc1Cl)N1CCOCC1	-1%	2	-6	0.7	-0.1	?	0.9	13
C=CCN(c1ccccc1C(=O)O)S(=O)(=O)/C=C/c1ccccc1	3%	-15	-21	5.6	0.1	-2.5	-2.7	-20
CCO[C@@H]1OC(C(=O)NCc2nc3ccccc3[nH]2)=C[C@H](C)[C@H]1CCCO	12%	-7	1	3.6	0.7	?	-8.7	2
CCn1c2ccccc2c2cc(NC(=O)c3cccc(OC)c3)ccc21	1%	54	9	-1.5	0.2	-6.0	4.0	31
CC(=O)N1N=C(c2cccs2)CC1c1cccc([N+](=O)[O-])c1 (stereo not given)	-5%	19	0	0.0	0.1	5.3	5.6	15
COc1ccccc1-c1c(C)oc2cc(OCC(=O)OCc3ccccc3)ccc2c1=O	.	-14	-10	2.0	-1.1	3.1	-7.7	4
COc1ccc(-c2csc(/C(C#N)=C\c3ccc(O)c([N+](=O)[O-])c3)n2)cc1OC	.	11	20	-3.0	-0.9	-3.3	2.2	16
CC(C)Oc1ccc(C(=O)N(CN2CCCC2=O)c2ccc(F)cc2)cc1	1%	-12	1	3.0	-0.1	-3.9	.	2
CCN1C(=S)N[C@@H](c2cccc(F)c2)C(C(=O)OC)=C1C	.	-34	9	-6.5	0.9	10.0	-3.6	1
O=C(/C=N/O)Nc1ccccc1C(=O)O	-3%	-19	0	4.1	0.6	0.9	.	-36
COc1ccc(C(=O)O)cc1NC(=S)NC(=O)c1ccc(-c2ccc(Cl)cc2)o1	.	-27	.	.	.	7.0	-7.3	11
COc1ccc(S(=O)(=O)N(C)Cc2ccc3c(c2)OCCO3)cc1	2%	.	7	2.4	-0.2	.	-3.7	.
Oc1ccccc1-c1nc2cnccn2c1Nc1ccc2c(c1)OCCO2	2%	14	2	0.3	0.3	6.5	5.1	1
Cc1ccccc1NC(=O)NCCc1c[nH]c2ccccc12	-3%	-1	-2	5.3	1.0	-1.5	5.0	2
Cc1cc2n(n1)C(c1cccs1)Nc1ccccc1-2 (stereo not given)	?	13	.	-4.3	1.3	?	.	2
CC(=O)N1CCc2cc(S(=O)(=O)N3CCOCC3)ccc21	1%	-14	-1	-1.2	1.2	0.3	.	-7
Cc1ccc(NC(=S)N(C)C(c2ccccc2)c2ccccc2)cc1C	-13%	5	3	-7.0	0.8	0.5	-0.7	2
